ID4 binder – binds human ID4 protein on microarray | P47928 | small molecule microarray, Flag-ID4 binding, fluorescence F/B | calls only | hit rate 1.2% among 31,000 | AID 624137;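 active = spot signal over background at p below 0.07 in all four prints; compounds were printed on slides so no solution concentration is given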;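 also: a binder raises fluorescence above local background on the spot; about 2 pmol printed per array spot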
Target sequence (P47928 whole entry, looked up): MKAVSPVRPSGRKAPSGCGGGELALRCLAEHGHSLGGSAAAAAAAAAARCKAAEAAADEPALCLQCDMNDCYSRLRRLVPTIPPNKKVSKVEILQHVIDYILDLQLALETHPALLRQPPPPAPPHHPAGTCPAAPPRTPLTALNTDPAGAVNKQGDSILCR
Calls only; i = inactive.

SMILES | ID4 binder
CNC[C@@H]1Oc2cc(-c3cccc(F)c3)ccc2S(=O)(=O)N([C@@H](C)CO)C[C@H]1C | i
CCCC#Cc1ccc2c(c1)O[C@H](CN(C)C(=O)c1cnccn1)[C@H](C)CN([C@H](C)CO)S2(=O)=O | i
Cc1ccc(-c2cc(C)nc(SCC(=O)Nc3ccc(F)cc3)n2)cc1 | i
C[C@H]1CN([C@@H](C)CO)S(=O)(=O)c2ccc(C#Cc3ccccn3)cc2O[C@@H]1CN(C)C(=O)C1CC1 | i
CC(=O)O[C@@H]1CC2C(C)(C)C(=O)C3OC3[C@]2(C)C2CC[C@@]3(C)[C@H](c4ccoc4)OC(=O)C4OC43[C@@]21C (some centres undefined) | i
Cc1ccc(NC(=O)CSc2nc(C)c(C)c(=O)[nH]2)cc1 | i
COCC(=O)N[C@@H]1C=C[C@@H](CC(=O)N2CCCCC2)O[C@@H]1CO | i
O=C(Nc1ccc(F)cc1)N[C@H]1C=C[C@@H](CC(=O)N2CCCCC2)O[C@@H]1CO | i
CC(=O)Nc1ccccc1NC(=O)CN(C)S(=O)(=O)c1ccc(Cl)cc1 | i
O=C(NCCCn1ccnc1)c1cc(-c2cccnc2)nc2ccc(Cl)cc12 | i
O=C(CCN1CCCCC1)N[C@@H]1CC[C@H](CC(=O)N2CCC(Cc3ccccc3)CC2)O[C@H]1CO | i
CC(=O)Nc1ccccc1-c1nc2ccccc2nc1OCC(=O)c1ccc(Br)cc1 | i
Cc1cc(C)c2oc(-c3ccc(NC(=O)COc4ccccc4[N+](=O)[O-])cc3)nc2c1 | i
COc1cccc(NC(=O)Cn2cnc3c2c(=O)n(C)c(=O)n3C)c1 | i
C[C@H](CO)N1C[C@H](C)[C@@H](CN(C)C(=O)C2CCC2)Oc2ncc(C#CC3CCCC3)cc2C1=O | i
Cc1c(NC(=O)COc2ccc(Br)cc2)cccc1C(=O)O | i
CCc1ccc(-n2c(SCC(=O)Nc3cc(Cl)ccc3C)nnc2-c2ccncc2)cc1 | i
CCCC#Cc1cnc2c(c1)C(=O)N([C@@H](C)CO)C[C@@H](C)[C@H](CN(C)C(=O)c1ccc(F)cc1)O2 | i
COc1ccc(OC)c(C(C)NC(=O)Nc2ccc([N+](=O)[O-])cc2OC)c1 (centres undefined) | i
CC(C)(C)c1ccc(OCC(=O)Nc2cccc(C(=O)O)c2)cc1 | i
COc1cc(OC)nc(NC(=O)CSc2nc3ccccc3[nH]2)n1 | i
CN(c1cccc(NC(=O)c2ccc(NS(=O)(=O)c3ccccc3)cc2)c1)S(C)(=O)=O | i
COc1ccc(OC(C)C(=O)Nc2ccccc2C#N)cc1 (centres undefined) | i
O=C(C[C@H]1CC[C@@H](NC(=O)C2CCC2)[C@H](CO)O1)NCc1ccccc1Cl | i
Cc1c(Br)c([N+](=O)[O-])nn1C(C)C(=O)Nc1ccc(CC#N)cc1 (centres undefined) | i

Sorted by length of the SMILES (descending): part of the list above
SMILES | ID4 binder
CCCC#Cc1ccc2c(c1)O[C@H](CN(C)C(=O)c1cnccn1)[C@H](C)CN([C@H](C)CO)S2(=O)=O | i
C[C@H](CO)N1C[C@H](C)[C@@H](CN(C)C(=O)C2CCC2)Oc2ncc(C#CC3CCCC3)cc2C1=O | i
O=C(C[C@H]1CC[C@@H](NC(=O)C2CCC2)[C@H](CO)O1)NCc1ccccc1Cl | i
COc1ccc(OC)c(C(C)NC(=O)Nc2ccc([N+](=O)[O-])cc2OC)c1 (centres undefined) | i
Cc1c(Br)c([N+](=O)[O-])nn1C(C)C(=O)Nc1ccc(CC#N)cc1 (centres undefined) | i
O=C(NCCCn1ccnc1)c1cc(-c2cccnc2)nc2ccc(Cl)cc12 | i
Cc1c(NC(=O)COc2ccc(Br)cc2)cccc1C(=O)O | i

A different layout for four compounds above.
| Molecule | ID4 binder |
| --- | --- |
| CC(C)(C)c1ccc(OCC(=O)Nc2cccc(C(=O)O)c2)cc1 | i |
| COc1cc(OC)nc(NC(=O)CSc2nc3ccccc3[nH]2)n1 | i |
| CN(c1cccc(NC(=O)c2ccc(NS(=O)(=O)c3ccccc3)cc2)c1)S(C)(=O)=O | i |
| COc1ccc(OC(C)C(=O)Nc2ccccc2C#N)cc1 (centres undefined) | i |

Additional records:
SMILES | ID4 binder
Cc1cc(Br)c(NC(=O)CSc2nc3ccccc3[nH]2)cc1C | i
O=C(CSc1nnnn1-c1ccccc1)Nc1ccc2c(c1)OCCO2 | i
COc1ccc(C(=O)COc2ccc(NC(=O)c3ccccc3[N+](=O)[O-])cc2)cc1 | i
O=C1CC(SCCc2nc3ccccc3[nH]2)C(=O)N1c1ccc(F)cc1 (centres undefined) | i
COCCNC(=O)C[C@@H]1C=C[C@@H](NC(=O)NC2CCCCC2)[C@@H](CO)O1 | i
COc1ccccc1NC(=O)N[C@H]1CC[C@H](CC(=O)N2CCC(Cc3ccccc3)CC2)O[C@@H]1CO | i
O=C(C[C@H]1C=C[C@@H](NC(=O)CC2CC2)[C@@H](CO)O1)NCC(F)(F)F | i
NC(=O)CSc1nnc(-c2cccnc2)n1-c1cccc(C(F)(F)F)c1 | i
CCCNC(=O)N[C@H]1CC[C@H](CC(=O)NC2CCC2)O[C@H]1CO | i
Cc1ccc(C)c(NC(=O)CSc2ncnc3sc4c(c23)CCC4)c1 | i
O=C(c1ccc2c(c1)OCO2)N1CCCCC1 | i
CC(C)CC#Cc1cnc2c(c1)C(=O)N([C@@H](C)CO)C[C@@H](C)[C@@H](CN(C)CC1CCOCC1)O2 | i
Cc1cc(NC(=O)c2cnn3c(C(F)(F)F)cc(-c4cccs4)nc23)n(-c2ccccc2)n1 | i
COc1ccc(OC)c(NC(=O)Cc2ccc(OC)c(OC)c2)c1 | i
CNC[C@@H]1Oc2cc(C#CCC3CCCC3)ccc2S(=O)(=O)N([C@@H](C)CO)C[C@H]1C | i
C[C@@H]1CN([C@@H](C)CO)S(=O)(=O)c2ccc(-c3cccc(F)c3)cc2O[C@H]1CN(C)C | i
O=C(O)CCNS(=O)(=O)c1cccc(F)c1 | i
COc1cc2c(cc1OC)-c1cc3ccc(OC)c(OC)c3c[n+]1CC2 | i
CCCN(C)C[C@@H]1Oc2cc(C#Cc3ccc(F)cc3)ccc2S(=O)(=O)N([C@H](C)CO)C[C@@H]1C | i
Cc1cc(=O)[nH]c(SC(C)C(=O)Nc2cccc3ccccc23)n1 (centres undefined) | i
Cc1nn(C(C)C(=O)Nc2sc3c(c2C#N)CCCC3)c(C)c1[N+](=O)[O-] (centres undefined) | i
Nc1cc(N)nc(SCC(=O)Nc2ccc(Br)cc2Cl)n1 | i
O=C(Nc1cccnc1)c1nc2ncccn2n1 | i
COc1ccc(OCC(=O)Nc2sc(C)c(C)c2C(N)=O)cc1 | i
C[C@H](CO)N1C[C@H](C)[C@@H](CN(C)C(=O)c2ccncc2)Oc2cc(C#CC3(O)CCCC3)ccc2S1(=O)=O | i
SMILES | ID4 binder
C[C@H](CO)N1C[C@H](C)[C@@H](CN(C)C(=O)C2CCC2)Oc2ncc(-c3cccc(F)c3)cc2C1=O | i
CC(C)NC(=O)N1[C@H](CO)[C@H](c2ccc(C#CC3CCCC3)cc2)[C@@H]1C#N | i
CO[C@@H](CN(C)S(=O)(=O)c1cccc(Cl)c1)[C@H](C)CN([C@@H](C)CO)S(=O)(=O)c1ccc(Cl)cc1 | i
COC(=O)C[C@H]1C=C[C@H](NS(=O)(=O)c2ccccc2F)[C@H](CO)O1 | i
C[C@@H](O)C#Cc1cnc2c(c1)C(=O)N([C@@H](C)CO)C[C@H](C)[C@@H](CN(C)CC1CCCC1)O2 | i
COc1cccc(NC(=O)CSc2nc3ccccc3c(=O)n2-c2ccc(Br)cc2)c1 | i
CCCC1=C(C(=O)OCC)C(c2cccnc2)n2ncnc2N1 (centres undefined) | i
C[C@@H](O)C#Cc1cnc2c(c1)C(=O)N([C@@H](C)CO)C[C@H](C)[C@@H](CN(C)CC1CCCCC1)O2 | i
Cc1ccccc1OCC(=O)Nc1cccc(NC(=O)c2ccc(C(C)(C)C)cc2)c1 | i
O=C(CSc1nnc(Nc2ccccc2)n1-c1ccccc1)Nc1ccc2c(c1)COC2=O | i
O=C(C[C@@H]1CC[C@@H](NC(=O)C2CCC2)[C@H](CO)O1)NCCCN1CCOCC1 | i
O=C(CSc1nc2ccccc2s1)c1ccc2c(c1)OCCO2 | i
Cc1cc(OCC(=O)NCc2ccco2)c(C)cc1Br | i
COc1ccc(NC(=O)COc2ccc3ccccc3c2Br)c([N+](=O)[O-])c1 | i
COC(=O)CN(c1cccc(Cl)c1)S(=O)(=O)c1ccc(Cl)cc1 | i
COc1ccc(NC(=O)C(C)Oc2ccccc2)c([N+](=O)[O-])c1 (centres undefined) | i
c1ccc(-n2cc3c(c2)CCc2cn(-c4ccccc4)cc2CC3)cc1 | i
COc1cc(OC)c(-c2nc(-c3ccccc3)c(-c3cccs3)[nH]2)cc1OC | i
CCn1c(SCC(=O)Nc2ccccc2Br)nnc1-c1ccccc1O | i
COc1ccc(C(=O)CSc2nnc(-c3ccc(Cl)cc3)n2-c2ccc(OC)cc2)cc1 | i
Cn1c2ccc(Br)cc2c2nnc(SCC(=O)N=C3NC(=O)CS3)nc21 | i
O=C(NCC(c1ccc[nH]1)C(F)(F)F)Nc1ccccc1 (centres undefined) | i
CCOC(=O)c1ccc(NC(=O)CCC2COc3ccccc3O2)cc1 (centres undefined) | i
C[C@@H]1CN([C@H](C)CO)C(=O)c2ccccc2-c2ccccc2CO[C@@H]1CN(C)Cc1cccc(F)c1 | i
C[C@@H]1CN([C@@H](C)CO)C(=O)c2cc(-c3cccc(F)c3)cnc2O[C@@H]1CN(C)C(=O)c1cnccn1 | i
SMILES | ID4 binder
C[C@@H]1CN([C@H](C)CO)C(=O)c2cc(C#CC3(O)CCCC3)cnc2O[C@H]1CN(C)C(=O)Cc1cccnc1 | i
CO[C@@H]1CN(C)C(=O)c2ccc(NC(C)=O)cc2OC[C@@H](C)N(C(=O)C2CCC2)C[C@H]1C | i
CCCC#Cc1cnc2c(c1)C(=O)N([C@@H](C)CO)C[C@H](C)[C@@H](CN(C)Cc1ccc(F)cc1)O2 | i
COc1ccc(C)cc1NC(=O)CNS(=O)(=O)c1cc(Cl)ccc1Cl | i
C/C=C/c1cnc2c(c1)C(=O)N([C@@H](C)CO)C[C@H](C)[C@@H](CN(C)Cc1ccccc1F)O2 | i
CCc1c(C)sc(NC(=S)Nc2cnccn2)c1C(=O)OC | i
Cc1[nH]c2ccc(CN3C(=O)c4ccccc4C3=O)cc2c1C | i
Cc1c(NC(=O)CSc2nncc3ccccc23)c(=O)n(-c2ccccc2)n1C | i
COc1ccc(CNC(=O)C[C@H]2C[C@@H]3c4cc(N(C)C)ccc4O[C@@H]3[C@H](CO)O2)cc1 | i
C[C@@H]1CN([C@@H](C)CO)C(=O)c2cc(C3=CCCC3)cnc2O[C@@H]1CN(C)C(=O)c1ccc(F)cc1 | i
CN(C)c1ccc2c(c1)[C@@H]1C[C@@H](CC(=O)NCc3ccccc3F)O[C@H](CO)[C@@H]1O2 | i
Cc1ccc(OCC(O)Cn2c(C(C)C)nc3ccccc32)cc1 (centres undefined) | i
C[C@@H]1CN([C@H](C)CO)C(=O)c2cc(C#Cc3cccc(F)c3)cnc2O[C@H]1CN(C)CC1CCCC1 | i
COc1ccccc1CCNS(=O)(=O)c1ccc(C(=O)O)n1C | i
Cc1ccccc1-c1nc(SCC(=O)Nc2ccc(Br)c(Cl)c2)n[nH]1 | i
C[C@@H]1CN([C@@H](C)CO)C(=O)c2ccccc2-c2ccccc2CO[C@@H]1CN(C)C(=O)C1CC1 | i
Cc1nn(CC(O)COc2ccc3c(c2)CCC3)c(C)c1C (centres undefined) | i
COc1ccc(NC(=O)CSc2nnc(N)n2-c2ccccc2)cc1 | i
CC1CCc2c(sc3ncnc(SCC(=O)NCC4CCCO4)c23)C1 (centres undefined) | i
CCn1c(SCC(=O)Nc2ccc(F)c(Cl)c2)nnc1-c1cccc(C)c1 | i
O=C(C[C@@H]1C=C[C@@H](NC(=O)C2CC2)[C@@H](CO)O1)NCc1ccncc1 | i
O=C(CN(C1CCCCC1)S(=O)(=O)c1ccc(Cl)cc1)Nc1ccc(F)cc1F | i
COc1cc(NC(=O)COc2cccc(C)c2C)ccc1NC(=O)c1ccccc1Cl | i
CC(C)CC#Cc1cnc2c(c1)C(=O)N([C@H](C)CO)C[C@H](C)[C@@H](CN(C)Cc1ccc(C(=O)O)cc1)O2 | i
O=C(O)CC1C(=O)N(c2ccccc2)C(=S)N1c1ccccc1 (centres undefined) | i
SMILES | ID4 binder
O=C(CCCN1C(=O)c2ccccc2C1=O)Nc1cccc2c1CCCC2 | i
CC(C)CC#Cc1ccc2c(c1)O[C@@H](CN(C)C(=O)Nc1ccccc1)[C@@H](C)CN([C@@H](C)CO)S2(=O)=O | i
CN1C(=O)C(O)(CC(=O)c2ccco2)c2cc([N+](=O)[O-])ccc21 (centres undefined) | i
C[C@H]1CN([C@@H](C)CO)S(=O)(=O)c2ccc(C3=CCCC3)cc2O[C@H]1CN(C)Cc1ccccc1 | i
COc1ccc(-c2noc(CSc3nc4sc(C)c(C)c4c(=O)n3-c3ccccc3)n2)cc1OC | i
COC(=O)c1ccccc1NC(=S)NC(=O)COc1ccc(C)cc1 | i
CC(C)(C)c1ccc(OCC(=O)NCCN2CCOCC2)cc1 | i
CCCC#Cc1ccc2c(c1)O[C@H](CN(C)C(=O)c1ccccn1)[C@@H](C)CN([C@@H](C)CO)S2(=O)=O | i
CN(C)c1ccc2c(c1)[C@H]1C[C@H](CC(=O)NCCN3CCCCC3)O[C@@H](CO)[C@H]1O2 | i
Cc1noc(C)c1NC(=O)N[C@@H]1CC[C@H](CC(=O)N2CCCCC2)O[C@H]1CO | i
N#CC(C#N)=C(N)/C(C#N)=C/c1ccc2[nH]ccc2c1 | i
C[C@H](CO)N1C[C@H](C)[C@H](CN(C)CC2CCCC2)Oc2ncc(-c3ccc(F)cc3)cc2C1=O | i

2 of the compounds above, field by field:
> Cc1cc(=O)[nH]c(SC(C)C(=O)Nc2cccc3ccccc23)n1 (centres undefined)
- ID4 binder: i

> Cc1nn(C(C)C(=O)Nc2sc3c(c2C#N)CCCC3)c(C)c1[N+](=O)[O-] (centres undefined)
- ID4 binder: i

These rows are one share of the data, so the mix of outcomes need not match the whole.
